Rango dissoc inh – qHTS Assay for Inhibitors of RanGTP induced Rango (Ran-regulated importin-beta cargo) - Importin beta complex dissociation | 0.071% of 340,000 active | AID 540253, 2011 | Potency, µM (top dose mostly 46.1 µM), without a hit: at the highest dose activity change, negative = inhibition | Snurportin-1 (Homo sapiens) + GTP-binding nuclear protein Ran (Homo sapiens) + Importin … | Biochemical FRET Rango-importin beta, RanGTP-induced dissociation; active means falling FRET ratio curve, often poorly fitted, with flat reads before Ran was added; inconclusive means other falling curves, or compound fluorescence or quenching; inactive means flat or rising ratio curve;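 note: potency is the fitted concentration of half-maximal effect; % of control where 0% means no effect; nearly all actives have a fitted effect of over 45% in size; -100% = wells without RanGTP and RCC1; the record marks most hits as doubtful in a second field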
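Two FRET readings bracket the reaction: one 5 min after compound meets Rango–importin beta, another 45 min after RanGTP-RCC1 (0.6 uM Ran, 0.2 uM RCC1, 2 mM GTP) is added. Only the second defines inhibition.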
miR-21 reporter – qHTS Assay for Modulators of miRNAs and/orActivators of miR-21; HeLa miR-21 FLuc reporter, luciferase, 48 h; Potency, µM (series often up to 38.3 µM), for inactives: at the top dose reporter change, positive = more light; 340,000 tested, under 10 active; active = well fitted rising curve with a large enough effect; inconclusive = small, poorly fitted or top-dose-only effect; inactive = no such curve, though single readings can be large or run the other way;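 note: % of control where 0% means no effect; miR-21 action dims this reporter so a rising signal means less miR-21 action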
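HeLa miR-21-FLuc reporter line, endogenous miR-21; 2000 cells/well in DMEM/10% FBS; compound titration up to ~40uM final, 48 h, 37 degree Celsius; luciferase detection reagent, 15 min lysis, CCD luminescence.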
GLA inh pH 4.5 – qHTS Assay for Inhibitors of Human alpha-Galactosidase at pH 4.5; AID 1467, 2008; activity change, negative = inhibition, % at 105 µM; Alpha-galactosidase A (Homo sapiens), P06280; purified enzyme, 4-MU-alpha-Gal fluorescence, pH 4.5; 230,000 tested, under 10 active; inconclusive = small, poorly fitted or top-dose-only inhibition, or a rising curve; inactive = flat fitted curve, though single readings scatter; no compound was filed as active;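 note: 0% = full activity with enzyme and -100% = basal without enzyme; dose as in the result columns while the protocol names 77 µM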
Rango complex inh – qHTS Assay for Inhibitors of Rango (Ran-regulated importin-beta cargo) - Importin beta complex formation | Importin subunit beta-1 (Homo sapiens), Q14974 | Rango CFP/YFP FRET sensor + importin beta, 45 min | Potency, µM (highest dose often 92.2 µM), inactives show top-dose inhibition of complex formation | 0.031% of 340,000 active | AID 540263, 2011; active = rising FRET ratio curve, often small or poorly fitted; inconclusive = mostly compound fluorescence or quenching in the first reads; inactive = flat curves in all reads;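 note: potency is the fitted concentration of half-maximal effect; 0% = DMSO wells and 100% = buffer wells lacking importin beta; nearly all actives have a fitted effect of over 15% in size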
Target sequence (Q14974 whole entry, looked up): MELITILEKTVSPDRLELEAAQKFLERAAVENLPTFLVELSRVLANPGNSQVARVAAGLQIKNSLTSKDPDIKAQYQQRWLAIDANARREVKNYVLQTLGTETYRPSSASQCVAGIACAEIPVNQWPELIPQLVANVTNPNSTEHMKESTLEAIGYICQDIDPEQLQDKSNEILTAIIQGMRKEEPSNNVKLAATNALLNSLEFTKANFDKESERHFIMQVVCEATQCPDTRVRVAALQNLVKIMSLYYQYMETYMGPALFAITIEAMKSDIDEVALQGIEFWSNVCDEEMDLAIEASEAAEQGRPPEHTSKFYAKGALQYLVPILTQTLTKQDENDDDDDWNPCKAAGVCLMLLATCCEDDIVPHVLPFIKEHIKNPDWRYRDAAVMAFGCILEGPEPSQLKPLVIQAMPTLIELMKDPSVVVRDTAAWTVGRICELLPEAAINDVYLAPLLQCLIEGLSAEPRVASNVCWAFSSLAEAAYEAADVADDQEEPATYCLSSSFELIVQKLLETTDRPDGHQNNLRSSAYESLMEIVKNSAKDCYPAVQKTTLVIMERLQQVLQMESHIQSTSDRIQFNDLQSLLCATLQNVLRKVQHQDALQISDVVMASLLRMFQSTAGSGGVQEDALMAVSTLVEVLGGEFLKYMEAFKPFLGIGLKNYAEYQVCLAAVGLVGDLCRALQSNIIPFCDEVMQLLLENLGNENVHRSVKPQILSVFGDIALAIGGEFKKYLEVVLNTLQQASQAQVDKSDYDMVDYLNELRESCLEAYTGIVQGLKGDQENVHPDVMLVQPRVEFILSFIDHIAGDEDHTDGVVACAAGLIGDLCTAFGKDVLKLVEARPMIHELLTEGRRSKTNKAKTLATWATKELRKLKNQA
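Inhibition scored from the CFP 486 nm/YFP 530 nm FRET ratio 45 min after adding 0.125 microM importin beta to 50 nM Rango biosensor preincubated 5 min with compound (room temperature, PBS with DTT, Tween-20, BSA). No-importin wells as positive control.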
Active calls of the source: *; ? = inconclusive; / = not tested or not shown; & = joins results of further samples.

Rango dissoc inh	miR-21 reporter	GLA inh pH 4.5	Rango complex inh	canonical_smiles
14%	0%	1	-4.6%	O=C1C(c2ccc(F)cc2)N(CC2COc3ccccc3O2)C(=O)CN1C1CCCCC1 (stereo not drawn)
-6%	-7%	-21	0.2%	COc1ccc2c(c1)sc(=N)n2CC(=O)Nc1cc(C)cc(C)c1
-5%	/	/	2.3%	COc1ccccc1CNC(=O)COC(=O)c1cccs1
9%	-4%	4	0.0%	Cc1cc(=O)nc2c3ccccc3n(C(C)C(=O)NCCC(C)C)n12 (stereo not drawn)
-13%	-11%	3	-3.4%	Fc1ccc(NC(=S)N2CCCc3ccccc32)cc1
-7%	-58%	2	5.4%	CCn1c2ccccc2c2cc(NC(=O)N3CCOCC3)ccc21
-17%	-2%	-23	5.7%	COCCn1c(SC(C)C(=O)Nc2ccc3c(c2)OCCO3)nc2ccccc2c1=O (stereo not drawn)
20%	-5%	-5	0.3%	Cc1ccc2c(c1)N(Cc1ccncc1)C(=O)C(C)O2 (stereo not drawn)
30%	-2%	8	-2.0%	COC(=O)c1sccc1NC(=O)Nc1cccc(C(C)=O)c1
2%	-1%	/	-1.8%	COc1cc(CN2CCNC(=O)C2CC(=O)N(C)CCCN2CCOCC2)cc(OC)c1 (stereo not drawn)
4%	/	/	0.8%	Brc1ccccc1OCCN1CCCC1
18%	/	/	1.1%	CCOC(=O)c1c(C)[nH]c(C(=O)CN2C(=O)NC(C)(C)C2=O)c1C
/	-4%	8	/	CCOc1ccc(NC(=O)CC)cc1
-21%	-22%	5	-4.7%	COc1ccc(C(=O)NCCn2ccc3ccccc32)cc1OC
-6%	-25%	-9	-0.5%	O=C(CSc1nc2ccccc2n1S(=O)(=O)c1cccc([N+](=O)[O-])c1)NCCc1ccccc1
-10%	-8%	/	-1.1%	Cc1nnc2c(N(C)S(=O)(=O)c3ccccc3)nc3ccccc3n12
24%	-6%	-12	0.3%	COc1cc(OC)cc(-c2nc3ccccc3c(=O)n2OC(=O)c2ccc(Br)cc2)c1
0%	1%	/	-0.3%	O=C(NC1Cc2ccccc2C1)c1cc(COc2cccc(C(F)(F)F)c2)on1
4%	0%	-4	-4.3%	CCOC(=O)C1CCN(c2c(NCCCN(CC)Cc3ccccc3)c(=O)c2=O)CC1
-14%	1%	0	0.1%	C=CCN1C(=O)OC2(CCCCC2)C1(C)O (stereo not drawn)
-7%	-13%	2	-1.1%	COCc1nnc(NC(=O)c2ccco2)s1
1%	0%	/	0.2%	CSCC[C@H](NS(=O)(=O)c1ccc(C)cc1)C(=O)N1CCC(C(=O)N[C@H](C(=O)O)c2ccccc2)CC1
-9%	/	/	0.6%	CC(=O)NN(O)C1N(C)C(=O)N(Cc2ccccc2)C1(C)C (stereo not drawn)
13%	-2%	4	1.0%	O=C(COc1ccccc1)NC1CCSC1=O (stereo not drawn)
-4%	2%	-5	1.1%	CC(NC(=O)c1c(Cl)cnn1C)C1CCCO1 (stereo not drawn)
7%	-70%	-5	-6.3%	CC(NC(=O)c1ccccc1NC(=O)c1ccco1)C(=O)O (stereo not drawn)
2%	-1%	4	0.6%	Cc1c(Cl)cccc1NC(=O)CCCn1cnc([N+](=O)[O-])n1
?	-5%	2	?	CCOC(=O)CC(=O)CSc1[nH]c(=O)cc(C)c1C#N
3%	-5%	-3	0.1%	O=C(Cc1ccccc1)N/N=C/C=C/c1cccc([N+](=O)[O-])c1
-10%	-3%	5	0.2%	CCNC(=O)CC1C(=O)N(CC)C(=S)N1NC(=O)c1ccccc1 (stereo not drawn)
-11%	-8%	/	1.9%	CC(=O)N1CCN=C1SCc1cccc(C)c1
?	-10%	4	-6.5%	CC(=O)Nc1ccc(NC(=O)CSCCc2ccccn2)cc1
2%	-2%	0	1.2%	CCOc1ccc(C(F)(F)F)cc1NC(=O)c1ccc(OC)c([N+](=O)[O-])c1
/	-6%	8	/	Cc1nn(-c2ccccc2)c2sc(C(=O)OCN3C(=O)c4ccccc4C3=O)cc12
-15%	-4%	-2	?	CCCCc1ccc(/C=C2\C(=O)ON=C2c2ccccc2)s1
-2%	0%	/	3.1%	O=C(NCCN1CCOCC1)c1cccc(S(=O)(=O)N2CCCC2)c1
3%	-7%	5	-2.0%	c1cnc2c(C3NCCc4c3[nH]c3ccccc43)cccc2c1 (stereo not drawn)
4%	0%	5	0.6%	O=C(O)c1ccccc1-c1ccccc1C(=O)NCc1cccnc1
-11%	-1%	-5	0.6%	COc1ccc(/C=N/OCC(=O)N=Nc2c(O)[nH]c3ccc(Br)cc23)cc1
1%	-2%	-17	0.9%	O=C(CSc1nnc(NC(=O)c2ccc3c(c2)OCO3)s1)NCc1ccco1
3%	/	/	5.0%	COc1ccc(CCNS(=O)(=O)CCNC(=O)c2ccccc2)cc1
0%	-15%	/	-1.4%	Cc1ccc(NC(=O)CCc2c(C)nn(-c3ccc(N4CCCCC4)nn3)c2C)cc1
1%	5%	-5&0	-0.2%	COC(=O)c1cccc(C#CC(NP(=O)(c2ccccc2)c2ccccc2)c2ccccc2)c1 (stereo not drawn)
1%	0%	-5&-2	-2.9%	O=C(O)c1ccc(-c2ccccc2Cl)o1
12%	11%	-14	-0.2%	Cc1cc(C(C)(C)C)oc1C(=O)N(CC(=O)NC1CCCC1)c1ccc(F)cc1
7%	-13%	/	0.0%	CC(CNc1nc2ccccc2n2cnnc12)c1ccccc1 (stereo not drawn)
11%	15%	/	6.1%	O=[N+]([O-])c1ccc(N2CCN(c3ccc([N+](=O)[O-])cc3CO)CC2)c(CO)c1
-1%	/	/	0.1%	CN(C)CCCNC(=O)C[C@H]1C[C@H](C(=O)N2CCOCC2)[C@@]2(C)c3[nH]c4cc(CCC(=O)N(C)C)ccc4c3CCN2C1=O
1%	-5%	/	-2.8%	C/C(=N\N=C1\NC(=O)C(CC(=O)Nc2ccc(Cl)cc2)S1)c1ccco1 (stereo not drawn)
-16%	1%	1	-1.9%	Cc1ccc(C(=O)CSc2nnc(-c3ccccc3)n2-c2ccccc2)o1
?	-21%	1	?	Cc1cc(/C=N/Nc2ccc([N+](=O)[O-])cn2)c(C)n1-c1ccc(C(=O)O)cc1
-6%	-2%	-27&-7	2.2%	COC(=O)c1cccc(C23CC4(C2)[C@H](CN(C)[C@@H]4c2ccccc2)C3c2ccc(C(F)(F)F)cc2)c1 (stereo partly drawn)
15%	/	/	-4.0%	Cc1ccccc1N=C1SCCN1C(=O)CN1C(=O)NC2(CCCC2)C1=O
4%	-1%	/	1.4%	CC1CCN(S(=O)(=O)c2cccc(S(=O)(=O)N3CCCC3)c2)CC1
2%	0%	6	-4.0%	CC(C)c1ccccc1NC(=O)CCc1nc2ccccc2s1
4%	4%	/	-0.1%	COc1ccccc1C(=O)NCc1nnc(SCC(=O)Nc2nccs2)n1C
0%	-3%	/	-2.8%	COCCn1c(SCC(=O)Nc2cccc(F)c2)nc2c(c1=O)SCC2
4%	-2%	/	1.5%	Cc1ccc(S(=O)(=O)c2c(O)c3ccc(C(=O)O)cc3[nH]c2=O)cc1
-9%	9%	2	0.8%	Cc1[nH]n(-c2ccccc2)c(=O)c1C(=O)c1ccc([N+](=O)[O-])cc1
2%	4%	8	1.6%	Cc1ccccc1C(=O)NNC(=S)NC(=O)c1ccccc1

Other compounds:
Rango dissoc inh	miR-21 reporter	GLA inh pH 4.5	Rango complex inh	canonical_smiles
3%	/	/	1.7%	COc1ccc(S(=O)(=O)N(C)C[C@H]2Oc3c(NC(=O)Nc4c(C)noc4C)cccc3C(=O)N([C@@H](C)CO)C[C@H]2C)cc1
4%	/	/	0.0%	Cc1ccc(NC(=O)c2cc(S(=O)(=O)N3CCCCC3)ccc2N2CCOCC2)cc1S(=O)(=O)N(C)C
1%	-21%	7	-1.8%	CC1(C)Oc2nc3ccccc3n2/C1=C\C#N
25%	-10%	-4	2.5%	Cc1cccc(CCNC(=O)CCCOc2cc(=O)n(C)c3ccccc23)c1
-10%	-28%	2	0.8%	Cc1ccc(/C=C(\C#N)c2nn(-c3ccccc3)c(N)c2C#N)cc1
12%	19%	7	1.2%	Fc1cc(F)c(C2SCCN2C(=S)Nc2cccc(C(F)(F)F)c2)c(F)c1 (stereo not drawn)
11%	-2%	/	0.2%	O=C(NCc1cccnc1)c1cccc(OC2CCN(Cc3ccc(CO)o3)CC2)c1
-10%	-3%	-1	?	O=C(CN1C(=O)NC(Cc2c[nH]c3ccccc23)C1=O)NC1CC1 (stereo not drawn)
2%	-11%	-3	-4.5%	COc1cc(CNCCC2CCOC(C)(C)C2)ccc1O (stereo not drawn)
-15%	-46%	-4	0.2%	Cc1cccc(/C(N)=N/OC(=O)c2ccc3c(c2)OCO3)c1
-12%	/	/	-0.8%	COc1ccc(Cl)cc1C=CC=NNS(=O)(=O)c1ccc(C)cc1
0%	0%	/	0.5%	CC(=O)N1c2ccc(S(=O)(=O)NCCC(=O)NC3CCC(C)CC3)cc2CC1C (stereo not drawn)
15%	/	/	-1.5%	CCOCCCNC(=O)CN1CCN(S(=O)(=O)c2ccc3c(c2)CCC3)CC1
15%	-2%	-4	1.4%	CCCNC(=O)C1CCN(S(=O)(=O)c2c(C)noc2/C=C\c2ccc(OC)cc2)CC1
-11%	/	/	-2.3%	CCN(CC(=O)Nc1ccccc1C(F)(F)F)C(=O)c1cccc(N2C(=O)CCC2=O)c1
-7%	-42%	5	0.7%	COc1ccc2nc(NC(=O)CC3Oc4ccccc4NC3=O)sc2c1 (stereo not drawn)
-10%	0%	3	8.6%	O=C(O)CSc1nnc(CNc2ccc(F)cc2)n1-c1ccccc1
-5%	-6%	8	-3.6%	c1ccc(CN2OCC3Cn4c(nc5ccccc54)C32)cc1 (stereo not drawn)
17%	/	/	?	O=C1CCC(C(=O)Nc2ccccc2N2CCCC2)=NN1
15%	19%	-10	-2.7%	CCn1ncc(/C=N\NC(=O)COc2cc(C)cc(C)c2)c1C

In a second layout: results already given
CCCNC(=O)C1CCN(S(=O)(=O)c2c(C)noc2/C=C\c2ccc(OC)cc2)CC1
  Rango dissoc inh: 15%; miR-21 reporter: -2%; GLA inh pH 4.5: -4; Rango complex inh: 1.4%
CCN(CC(=O)Nc1ccccc1C(F)(F)F)C(=O)c1cccc(N2C(=O)CCC2=O)c1
  Rango dissoc inh: -11%; miR-21 reporter: /; GLA inh pH 4.5: /; Rango complex inh: -2.3%
COc1ccc2nc(NC(=O)CC3Oc4ccccc4NC3=O)sc2c1 (stereo not drawn)
  Rango dissoc inh: -7%; miR-21 reporter: -42%; GLA inh pH 4.5: 5; Rango complex inh: 0.7%

Five successive compounds out of the list so far:
Rango dissoc inh	miR-21 reporter	GLA inh pH 4.5	Rango complex inh	canonical_smiles
-7%	-42%	5	0.7%	COc1ccc2nc(NC(=O)CC3Oc4ccccc4NC3=O)sc2c1 (stereo not drawn)
-10%	0%	3	8.6%	O=C(O)CSc1nnc(CNc2ccc(F)cc2)n1-c1ccccc1
-5%	-6%	8	-3.6%	c1ccc(CN2OCC3Cn4c(nc5ccccc54)C32)cc1 (stereo not drawn)
17%	/	/	?	O=C1CCC(C(=O)Nc2ccccc2N2CCCC2)=NN1
15%	19%	-10	-2.7%	CCn1ncc(/C=N\NC(=O)COc2cc(C)cc(C)c2)c1C

Additional results follow.
Rango dissoc inh	miR-21 reporter	GLA inh pH 4.5	Rango complex inh	canonical_smiles
12%	0%	-4	-0.9%	O=S(=O)(N/N=C\c1c(F)cccc1Cl)c1ccc(Cl)cc1
-2%	1%	2	6.0%	COc1ccc(CN2CC(C(=O)NCCc3ccc(C)cc3)CC2=O)cc1 (stereo not drawn)
-9%	12%	-1	-2.9%	CCN(CC)c1ncnc2c1[nH]c1ccccc12
-7%	0%	2	?	COc1ccc(/C=C/C(=O)NCc2c(C)nn(C)c2C)cc1COc1ccc(Br)cc1
-5%	-18%	1	8.1%	CC(=O)NC(CCS(C)(=O)=O)C(=O)Nc1nc(C)cs1 (stereo not drawn)
-4%	-3%	5	?	O=C(O)c1ccccc1C(=O)c1ccc(Br)s1

Assay outcomes from PubChem BioAssay.

This is a subset; the hit share may differ from the screen's.
